High-throughput results as filed in PubChem.
Prx2 Sm inh = Schistosoma mansoni Prx2 inhibition | S. mansoni Prx2 activity coupled to TGR/GSH (TGR is thioredoxin glutathione reductase), NADPH fluorescence loss, qHTS; some inactives read as strong as hits | Potency, µM | 65,000 compounds, 0.07% hits | AID 448; active means full or partial inhibition curve with a strong effect at the top dose; inconclusive means weaker partial or single-point curve; inactive means no accepted curve; also: series up to 57 µM; many of its hits are not listed in these tables
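Prx2 inhibition was measured as reduced NADPH consumption when electrons flowed from NADPH through TGR and glutathione to Prx2 and H2O2. Plates were read kinetically over 8 min; enzyme reagents were held at 4 deg C during dispensing.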
LT uptake inh = anthrax lethal toxin internalization inhibition. AID 912. Cells, anthrax lethal toxin internalization, FRET ratio (460/530). Potency, µM (doses to about 40 µM), for inactives: at the top dose activity change, negative = inhibition, hits mostly inhibitors. 70,000 compounds, 0.67% hits; active = well fitted falling ratio curve with the 530 nm signal flat; inconclusive = other ratio curves, or a change in one channel alone; inactive = flat curves in the ratio and both channels; the % refers to the ratio; also: % is scaled to controls: 0 for no effect and ±100 for the full control effect; nearly all actives have a fitted effect of over 50% in size; tested in ME-180 cells; beta-lactamase reporter
The depositor's hits bear a star; ? = inconclusive; · = not tested or not shown; & = joins results of further samples; [ ] = remark or other dose. Potency is read from the fitted curve at half-maximal effect.

The line under a structure holds: Prx2 Sm inh, LT uptake inh
- CCOC(=O)c1sc(/N=C/Nc2nc(C)c(C(=O)OCC)s2)nc1C
→ >57, -5%
- O=C(CN1C(=O)C2C3C=CC(C3)C2C1=O)N1CC=C(c2ccccc2)CC1 (stereo not given)
→ >57, -7%
- Cc1c(N(C)C(=O)c2ccco2)c(=O)n(-c2ccccc2)n1C
→ >57, -8%
- C=CCNC(=O)c1scc2c1CCCC2
→ >57, 7%
- N=c1cc(C2(O)CCCCC2)n2c(nc3ccccc32)s1
→ >57, -5%
- CC1=N[C@@](C)(COC(=O)[C@]2(C)N[C@](C)(CO)CO2)COC1=O
→ >57, -13%[8 µM]
- CC1=C(C(=O)Nc2ccccc2)C(c2cccnc2)n2nc(-c3cccnc3)nc2N1 (stereo not given)
→ >57, 12%
- COc1ccc(N(CC(=O)Nc2cc(C)ccc2C)S(=O)(=O)c2c(C)nn(C)c2C)cc1
→ >57, 0%
- O=C(c1cccc(F)c1)N1CCC2(CC1)CCN(c1cccc(-c3ccccc3)c1)CC2
→ >57, ?
- O=S(=O)(c1ccccc1)N1CCSC1c1ccco1 (stereo not given)
→ >57, -17%
- Cc1ccc(OC(=O)CCC(=O)N2CCc3ccccc32)cc1
→ ·, 4%
- COc1cc(Cl)c(S(=O)(=O)N2CCOCC2)cc1Cl
→ >57, 2%
- Cc1ccc2c(c1)NCC(C(=O)NCc1ccccc1)O2 (stereo not given)
→ >57, -1%
- O=C(CSc1ncc(-c2ccccc2)n1CC1CCCO1)N1CCCCC1 (stereo not given)
→ >57, 0%
- O=S(=O)(/C=C/c1ccccc1)Nc1ccc(N2CCOCC2)cc1
→ ·, 12%
- COc1ccccc1-c1nc(-c2ccccn2)no1
→ >57, -1%
- CC1CN(c2nn3c(=O)c4ccccc4nc3c3ccccc23)CC(C)O1 (stereo not given)
→ >57, ?
- N#Cc1c2n(cnc1=O)CCCCC2
→ ·, 3%
- COc1ccc(C2=Nn3c(nnc3-c3ccc(OC)cc3)SC2)cc1
→ >57, -20%
- c1cncc(-c2nc(-c3ccc4c(c3)OCO4)cs2)c1
→ >57, 5%
- O=C(c1cc(-c2ccccc2)on1)N1CCN(Cc2ccc3c(c2)OCO3)CC1
→ >57, -28%
- Nc1nc(CN2CCN(c3cccc(Cl)c3)CC2)nc(N2CCCc3ccccc32)n1
→ >57, ?
- Cc1ccc(C)c(-n2c(CNC(=O)c3ccco3)nnc2SCC(=O)Nc2nccs2)c1
→ >57, 4%
- COc1cccc(OCCOc2c(OC)cccc2OC)c1
→ >57, 15%
- O=C(NCC1(N2CCOCC2)CCCCC1)c1ccc(Cl)c(S(=O)(=O)NCc2ccco2)c1
→ >57, 11%
- COC(=O)c1[nH]c2c(c1C)C(=O)CCC2
→ >57, 3%
- COC(=O)Cc1csc(N)n1
→ >57, -9%
- CC(CCc1ccccc1)NC(=O)C1CCN(S(=O)(=O)c2cnc[nH]2)CC1 (stereo not given)
→ >57, 2%
- COc1cccc(C(=O)Nc2ccc3nc(N4CCN(c5ncccn5)CC4)cc(C)c3c2)c1OC
→ >57, ?
- O=C1O[C@@H]([C@H](O)[C@H](O)[C@H](O)CO)[C@@H](O)[C@@H]1O
→ >57, -2%[8 µM]

Overlap with the part before: 7 entries; new compounds follow.
The line under a structure holds: Prx2 Sm inh, LT uptake inh
- COc1cccc(OCCOc2c(OC)cccc2OC)c1
→ >57, 15%
- O=C(NCC1(N2CCOCC2)CCCCC1)c1ccc(Cl)c(S(=O)(=O)NCc2ccco2)c1
→ >57, 11%
- COC(=O)c1[nH]c2c(c1C)C(=O)CCC2
→ >57, 3%
- COC(=O)Cc1csc(N)n1
→ >57, -9%
- CC(CCc1ccccc1)NC(=O)C1CCN(S(=O)(=O)c2cnc[nH]2)CC1 (stereo not given)
→ >57, 2%
- COc1cccc(C(=O)Nc2ccc3nc(N4CCN(c5ncccn5)CC4)cc(C)c3c2)c1OC
→ >57, ?
- O=C1O[C@@H]([C@H](O)[C@H](O)[C@H](O)CO)[C@@H](O)[C@@H]1O
→ >57, -2%[8 µM]
- Cc1noc(NS(=O)(=O)c2ccc(N3Cc4ccccc4C3=O)cc2)c1C
→ >57, -1%
- CCCCCCCCCCCCCCCCCCc1ccc(C(=O)/C=C\C(=O)O)cc1
→ >57, 0%
- O=C1c2oc3ccc(F)cc3c(=O)c2C(c2cccc(O)c2)N1CCCN1CCOCC1 (stereo not given)
→ >57, -3%
- COc1ccc(C(=O)Nc2cccnc2)cc1S(=O)(=O)N1CCOCC1
→ >57, 15%
- COC(=O)C1=C(C)NC(=O)CC1c1cc2c(cc1Br)OCO2 (stereo not given)
→ ·, -12%
- COC(=O)N1CC=CC1(C)C(=O)O (stereo not given)
→ ·, -8%
- CS(=O)(=O)N(CC(=O)O)c1ccc2c(c1)OCO2
→ >57, ·
- c1ccc2[nH]c(NCCN3CCOCC3)nc2c1
→ >57, -17%
- Cn1c(=O)c(-c2ccc(Cl)cc2)nc2cnc(Nc3ccccc3)nc21
→ >57, 7%
- Cc1ccccc1Oc1ccc(Oc2ccccc2C)nn1
→ >57, -6%
- CN(C)CCCNc1oc(-c2cccc(Cl)c2)nc1C#N
→ >57, -5%
- CCCN(CCC)CCCNC(=O)c1cc2cc3ccc(OC)cc3nc2o1
→ >57, ?
- CCCS(=O)(=O)N1CCC(C(=O)NCCN(CC)c2ccccc2)CC1
→ >57, 3%
- CC(C)(C)c1ccc(OCCN2CCCC2)cc1
→ >57, -7%
- Cc1ccc(C2CC(c3ccccc3C)n3nc(N)nc3N2)cc1 (stereo not given)
→ >57, 2%
- CC1=C(C(=O)Nc2cccnc2)C(c2cccnc2)n2nc(-c3cccs3)nc2N1 (stereo not given)
→ >57, -2%
- Oc1c(C(c2cccs2)N2CCN(c3ccccc3)CC2)sc2ncnn12 (stereo not given)
→ >57, 6%
- COc1ccc2c(c1)c(=O)c(Br)c(C)n2Cc1ccccc1
→ ·, ?
- CCC(C)COC(=O)c1ccc(C(=O)O)cc1 (stereo not given)
→ >57, 23%
- C[C@]12N[C@@H](Cc3ccccc31)c1ccccc12
→ >57&>57&>57&>57, ?
- COc1ccc(C2(CNC(C)=O)CCCC2)cc1OC
→ ·, 2%
- O=C(Cn1nc(Cc2cccnc2)c2ccccc2c1=O)NCc1ccc2c(c1)OCO2
→ >57, 1%
- CC1(C)CC(=O)C=C(Nc2ccc(Br)cn2)C1
→ >57, -6%
- COc1ccc(O)c(C(=O)c2cc(C#N)c(=O)n(CCN3CCOCC3)c2)c1
→ >57, 4%
- Cc1cc(N2CCOCC2)n2nc(-c3cccc(F)c3)cc2n1
→ >57, 14%
- O=C(CCC1COc2ccccc2O1)Nc1ncccc1O (stereo not given)
→ >57, 2%
- COc1ccc(-c2nc(N3CCOCC3)nc3nn4c(C)c(CCC(=O)O)c(C)nc4c23)cc1
→ >57, 0%
- CN1CCN(CC(=O)Nc2ccc(Cl)cc2Cl)CC1
→ >57, -3%
- COC(=O)c1sc(N)c(C(=O)OC)c1CSc1nnc(-c2ccccc2Cl)n1C
→ >57, -3%
- CCNc1ncc2nc(-c3ccccc3)c(=O)n(-c3ccc(OC)cc3)c2n1
→ >57, ?

Molecules shown so far with an NH in an aromatic ring:
The line under a structure holds: Prx2 Sm inh, LT uptake inh
- COC(=O)c1[nH]c2c(c1C)C(=O)CCC2
→ >57, 3%
- CC(CCc1ccccc1)NC(=O)C1CCN(S(=O)(=O)c2cnc[nH]2)CC1 (stereo not given)
→ >57, 2%
- c1ccc2[nH]c(NCCN3CCOCC3)nc2c1
→ >57, -17%

Next entries:
The line under a structure holds: Prx2 Sm inh, LT uptake inh
- O=C1CN=C(c2ccccc2)c2oc3ccc(Br)cc3c2N1
→ >57, -18%
- O=C(CN(Cc1ccccc1)C(=O)c1ccco1)NCc1ccc(F)cc1
→ >57, 11%
- Cc1cc(NC2C3CC4CC(C3)CC2C4)n2nnnc2n1 (stereo not given)
→ >57, -8%
- Nc1ccnc(C(F)(F)F)c1C(=O)c1ccccc1
→ >57, -1%
- Cc1occc1-c1nnc(SCC(=O)N2c3ccccc3CCc3ccccc32)n1C
→ >57, -22%
- CC(NS(C)(=O)=O)C(c1cccs1)N1CCN(c2ccc(F)cc2)CC1 (stereo not given)
→ >57, -4%
- COC(=O)C/C=C\[C@@H](C)[C@H]1C=C[C@H](O)[C@@H](CO)O1
→ ·, 4%[8 µM]
- C=C/C(C)=C/[C@]1(C)SC(=O)C(C)=C1O
→ >57, 7%
- COCC(=O)Nc1ccc(N(C)C)cc1
→ >57, 2%
- CC1CN(S(=O)(=O)c2ccc(NC(=O)CCCN3C(=O)c4ccccc4C3=O)cc2)CC(C)O1 (stereo not given)
→ >57, 1%
- CC(C)(C)OC(=O)C1=NOC2(C=CC(=O)C=C2)C1
→ ·, ?
- COc1ccccc1C(=O)N1CCc2ccccc21
→ >57, ?
- COc1cccc(-c2nnc(SCC(=O)Nc3ccc4c(c3)OCCO4)n2Cc2ccco2)c1
→ >57, ·
- COc1ccc(OC)c(-n2cnnn2)c1
→ >57, ?
- N=c1sc2c(n1Cc1ccccc1)CCCC2
→ >57, 3%
- Cn1c(=O)c2c(nc(Br)n2CC(=O)C23CC4CC(CC(C4)C2)C3)n(C)c1=O
→ >57, 3%
- CCCOc1ccc(N2C(=O)CC(N3CCN(c4ccccc4F)CC3)C2=O)cc1 (stereo not given)
→ ·, -11%
- Cc1ccc(S(=O)(=O)C2(C(=O)Nc3cccnc3)CC2)cc1
→ >57, -9%
- Cc1cc(NC(=O)CSc2nc(C(C)C)nc3sc(C)c(C)c23)no1
→ >57, -3%
- Cc1nc(NCC2CCCO2)c2nnn(Cc3ccccc3Cl)c2n1 (stereo not given)
→ >57, -6%
- COc1ccc2c(c1)CCc1c(C(=O)N3CCCc4ccccc43)noc1-2
→ >57, ?
- CCCc1noc2c1C(c1ccoc1)C(C#N)=C(N)N2 (stereo not given)
→ >57, -22%
- CC(=O)c1cccc(S(=O)(=O)N2CCN(c3nc4cc(C)cc(C)c4cc3C#N)CC2)c1
→ >57, -11%
- COc1ccc(C(CC(=O)Nc2nccs2)n2cccc2)cc1 (stereo not given)
→ >57, -6%
- COc1ccccc1-c1cc(NCc2cnc(C)cn2)ncn1
→ ?, -19%
- O=C(NC(O)C(=O)c1cccs1)c1cccnc1 (stereo not given)
→ >57, 18%
- COC(=O)C1C(=O)C=C(N2CCOCC2)CC1(C)C (stereo not given)
→ >57, 14%
- CCOc1ccc(CCNC(=O)Cn2c(-c3nonc3N)nc3ccccc32)cc1OCC
→ >57, 41%
- Cc1ccc2c(CSc3nncs3)cc(=O)oc2c1
→ >57, ?
- O=C(Cn1cnc2c(cnn2-c2ccccc2)c1=O)c1ccc(Cl)cc1
→ >57, -4%

The line under a structure holds: Prx2 Sm inh, LT uptake inh
- O=C(c1ccc(C(=O)N2CCCc3ccccc32)nc1)N1CCCc2ccccc21
→ >57, 8%
- CCNc1ncc2nc(-c3cccs3)c(=O)n(-c3ccc(OC)cc3)c2n1
→ >57, ?
- O=C(O)c1cc(=O)cc(C(=O)O)[nH]1
→ >57&>57, -6%&-13%
- Cc1ccc2nc(-c3ccc(NC(=O)c4ccc(N)cc4)c(S(=O)(=O)O)c3)sc2c1
→ >57, ?
- c1ccc(Cn2nnnc2C(c2cccs2)N2CCOCC2)cc1 (stereo not given)
→ >57, 2%
- Cc1ccc(S(=O)(=O)N2CCCC(C(=O)N(Cc3cccs3)C3CC3)C2)cc1 (stereo not given)
→ >57, 2%
- CCCn1c(C)nc2c(NCCCN3CCCCC3C)nc(C)nc21 (stereo not given)
→ ·, -3%
- Cn1c(N)c(S(=O)(=O)c2ccc(Br)cc2)c2nc3ccccc3nc21
→ >57, ·
- Cc1cccc(C)c1NC(=O)CSc1nnc([C@H](C)NC(=O)OC(C)(C)C)o1
→ >57, ?
- CCOC(=O)N1CCN(C(=O)CSc2nnc(Cc3ccccc3)o2)CC1
→ >57, -11%
- Brc1cccc(-c2n[nH]c(-c3ccccc3)n2)c1
→ >57, -8%
- COC(=O)CSC1=C(C#N)C(c2ccc(Cl)cc2)C(C(=O)OC)C(=O)N1 (stereo not given)
→ >57, 6%
- Cn1c(=O)c2c(nc(SCc3cccnc3)n2Cc2ccc(F)cc2)n(C)c1=O
→ >57, 1%
- CCOc1ccc(C2C(C#N)=C(N)Oc3nc[nH]c(=O)c32)cc1OC (stereo not given)
→ ?, -2%
- NC[C@H](CS(=O)(=O)O)c1ccc(Cl)cc1
→ >57, ?
- C[C@]12CC[C@H]3c4ccc(O)cc4CC[C@@H]3[C@H]1CC[C@@H]2OC(=O)CCc1ccccc1
→ >57, -7%[8 µM]
- O=C(CCn1c(=O)oc2ccccc21)NCCCN1CCCC1=O
→ >57, 2%
- CC(C)(C)N1CC(COc2ccccc2)OC1=O (stereo not given)
→ >57, 5%
- CC(c1ccccc1)n1cc(C(=O)NCc2ccncc2)nn1 (stereo not given)
→ >57, 8%
- Cc1nonc1-c1nc(-c2nonc2N)n[nH]1
→ >57, 3%
- NCCC(=O)O
→ >57, ?
- Cn1c(=O)cc(OCCCC(=O)NCc2ccccn2)c2ccccc21
→ >57, -6%
- Cc1ccc(CO)cc1
→ ·, -1%
- NC(=O)C1(N2CCCCC2)CCN(Cc2ccccc2)CC1
→ >57, 0%
- O=C(COc1ccc2ccccc2c1)N1CCN(c2ccccc2O)CC1
→ >57, -17%
- C1CCc2c(nc3nnnn3c2N2CCOCC2)C1
→ >57, -1%
- COC(=O)c1cc(=O)nc2sc3ccccc3n12
→ >57, -18%
- COC(=O)C1(CCSC)NC(c2ccco2)C2C(=O)N(C)C(=O)C21 (stereo not given)
→ >57, -21%

These rows are one share of the data, so the mix of outcomes need not match the whole.
